TRPML1 inh: inhibitors of human TRPML1 channel; Q9GZU1; TRPML1-inducible cells, Ca2+ dye fluorescence, FDSS; hits give low values; inhibition of EC80 agonist-evoked calcium signal; activity change, negative = inhibition, % (no concentration beside the values); actives 0.02% (n = 390,000); AID 624415; in the data active means activity change below about -50%; inconclusive means about -30% to -50%; inactive means above about -30%;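 further: stimulus is agonist 54-4 at its EC80 concentration; on the % scale 0 is the no-effect control and ±100 the full control effect; compound concentration not given in the record; the text of the record puts the active cut at -80%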
Target sequence (Q9GZU1 whole entry, looked up): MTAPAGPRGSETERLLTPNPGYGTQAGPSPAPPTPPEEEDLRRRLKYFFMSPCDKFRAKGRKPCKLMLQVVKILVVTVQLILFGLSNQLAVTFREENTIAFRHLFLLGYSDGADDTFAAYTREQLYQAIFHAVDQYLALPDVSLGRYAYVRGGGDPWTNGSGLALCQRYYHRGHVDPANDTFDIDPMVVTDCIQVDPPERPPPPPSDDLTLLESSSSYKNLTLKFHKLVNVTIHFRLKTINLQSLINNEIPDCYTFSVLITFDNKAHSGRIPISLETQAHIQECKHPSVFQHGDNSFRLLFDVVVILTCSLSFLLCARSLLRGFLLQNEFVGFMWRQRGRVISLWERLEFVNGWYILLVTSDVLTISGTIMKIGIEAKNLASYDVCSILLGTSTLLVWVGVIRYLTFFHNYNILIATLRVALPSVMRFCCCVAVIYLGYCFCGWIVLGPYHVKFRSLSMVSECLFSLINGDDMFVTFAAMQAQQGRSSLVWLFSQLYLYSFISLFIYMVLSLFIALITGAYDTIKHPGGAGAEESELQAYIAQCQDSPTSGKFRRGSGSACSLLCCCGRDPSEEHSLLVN
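TRPML1-DL cells, Tet-induced overnight (~16 h, 37 °C) at 1,500 cells/well, were loaded with Ca8 no-wash dye plus quencher for 45-90 min at room temperature. Compounds were pinned during FDSS kinetic reading; agonist 54-4 at EC80 (4 uM final) then added.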
ClpP mod: qHTS Assay for Activators of ClpP. ATP-dependent Clp protease proteolytic subunit (Bacillus subtilis (strain 168)), P80244. AID 651965, 2013. actives 1.9% (n = 340,000). Potency, µM (top dose mostly 57.5 µM), for inactives: at the top dose activity change, negative = active. purified B. subtilis ClpP, FRET peptide cleavage, 20 min; active = well fitted falling curve with a large enough effect; inconclusive = small, poorly fitted or top-dose-only effect; inactive = no such curve, though single readings can be large or run the other way; further: potency means the concentration at half of the fitted maximal effect; the source files actives as falling curves though it sought activators and does not explain the sign; nearly all actives have a fitted effect of over 65% in size; many hits overshoot -100%
Target sequence (P80244 whole entry, looked up): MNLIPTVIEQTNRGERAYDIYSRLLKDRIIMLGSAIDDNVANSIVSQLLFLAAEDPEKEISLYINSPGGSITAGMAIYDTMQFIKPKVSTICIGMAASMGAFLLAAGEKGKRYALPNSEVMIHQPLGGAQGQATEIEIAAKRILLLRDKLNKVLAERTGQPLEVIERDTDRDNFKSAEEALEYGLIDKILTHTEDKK
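FRET quenching reversal measured ClpP activation: 10 microg/mL B. subtilis ClpP at pH 8 with the FRET-FV decapeptide, read at 430 nm after 320 nm excitation. The 20-min minus 0-min signal was scaled between DMSO/no-enzyme wells and ADEP (5.8 microM final).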
TRPML1 agonist: agonists of human TRPML1 channel | Q9GZU1 | TRPML1-expressing cells, Ca2+ dye fluorescence, FDSS; host cell line not named in the record; reference of the full effect not given here | activation, % (test concentration not listed) | actives 0.12% (n = 410,000) | AID 624414; in the data active = activation above about 50%; inconclusive = about 30% to 50%; inactive = below about 30%; further: 0% is about no effect; the text of the record puts the active cut at 80%
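Kinetic FDSS Ca2+ read in Tet-induced TRPML1-DL cells (ABD Ca8 dye plus quencher, 45-90 min RT loading): baseline, then compound, then 110 s agonist window; EC80 agonist 54-4 at 4uM final added afterwards for a 110 s antagonist window.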
PINK1 expr mod: modulators of PINK1 expression. PINK1 immunofluorescence, high-content cytometry, 24 h. Potency, µM (doses to about 76.6 µM), for the others: at the top dose activation (PINK1 increase), hits mostly activators. actives 0.2% (n = 410,000); active = well fitted activation curve with a large enough effect; inconclusive = small, poorly fitted or top-dose-only effect; inactive = flat fitted curve, though single readings scatter; cell line not stated here;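 further: potency means the concentration at half of the fitted maximal effect; % of control where 0% means no effect; nearly all actives have a fitted effect of over 65% in size; a mitochondrial uncoupler was the plate control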
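Measures PINK1 amount and localization on or inside mitochondria by immunofluorescence. Stable cells get compounds at 5 concentrations for 24 hours before fixation and staining; CCCP controls included.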
Menin-MLL FL inh: displaces fluorescein MLL peptide from human menin; FP activity change, % at 61.4 µM; 290,000 tested, under 10 active; Fluorescence polarization, fluorescein-MLL peptide displacement from menin; inconclusive = falling polarisation curve, or a change in total fluorescence; inactive = total fluorescence flat and polarisation flat or rising; no compound was filed as active; the % refers to the polarisation; negative = inhibition;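 further: % of control where 0% means no effect; inhibitors lower the polarisation; unlabelled MLL peptide was the positive control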
TRPV1 PAM: enhances activation of the human vanilloid receptor TRPV1. potentiation, % at 8.33 µM. Q8NER1. AID 540277. actives 0.02% (n = 320,000). TRPV1-expressing cells, Fluo-8 calcium influx, capsaicin EC20 potentiation; host cell line not named in the record; control for the full effect not named in the record; active means potentiation above 80%; inconclusive means 30% to 80%; inactive means below 30%; further: 0% is about no effect
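Cells expressing TRPV1 were dye-loaded with Fluo-8 and read kinetically: 10 s baseline, 3 min after compound (agonist portion), then 2 min after EC20 capsaicin (allosteric enhancer portion). Calcium-bound dye fluorescence at 480/520 nm.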
Sfp inh: Sfp phosphopantetheinyl transferase inhibition; Q9F4F7; Biochemical Sfp PPTase activity, qHTS; Potency, µM, inactives show max response, negative = inhibition, actives largely listed as inhibitors; actives 3.5% (n = 310,000); AID 1490; active means well fitted inhibition curve with a large enough effect; inconclusive means small, poorly fitted or top-dose-only effect, or another doubt; inactive means no such curve, though single readings can be large or run the other way;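 further: the enzyme is Sfp with the accession as filed and its product quenches rhodamine fluorescence; potency means the concentration at half of the fitted maximal effect; 0% = enzyme reaction without inhibitor and -100% = no enzyme wells; top concentration of the series not given in the record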
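Step 1, compound plus 15 nM Sfp-PPTase, 15 min, room temperature. Step 2, add rhodamine-CoA (5 uM) and BHQ-2-YbbR (12.5 uM). Step 3, read 525/598 nm fluorescence at 0 and 30 min.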
Numbers without * were called inactive; ? = inconclusive; . = not tested or not shown; & = joins results of further samples; [ ] = remark or other dose. Random draw from the library. Share with any hit: about 4.4%.

SMILES | TRPML1 inh | ClpP mod | TRPML1 agonist | PINK1 expr mod | Menin-MLL FL inh | TRPV1 PAM | Sfp inh
CCOc1ccccc1NC(=O)c1cc(=O)c2ccccc2o1 | -10 | 0.6% | -0.2 | 1.9% | 0.1 | 5 | 21%
Cc1ccc(COc2cccc3cc(-c4noc(-c5ccc(C)cc5)n4)c(=O)oc23)cc1 | -14 | 0.5% | 0.0 | 1.3% | . | . | .
CN(Cc1ccccc1)C(=O)c1cc2c(s1)-c1ccc(Cl)cc1SC2 | 4 | 25µM* | 2.6 | 2.4% | . | . | .
CC1CCC(C(C)C)C(OC(=O)CSc2nccc(=O)[nH]2)C1 (stereo not drawn) | 1 | 0.2% | -0.3 | -1.6%[38.3 µM] | 6.4 | 16 | -18%
CCN1C(=O)[C@@H]2[C@H](C1=O)[C@@H]1C(=O)Nc3ccccc3C(=O)N1[C@@H]2c1cccc(Cl)c1 | -21 | -7.1% | -0.1 | -0.2% | -5.3 | -18 | 11%
CCCCNc1ncnc2[nH]ncc12 | -5 | -4.3% | 0.3 | -0.3% | . | . | .
Cc1[nH]c(=O)[nH]c(=O)c1S(=O)(=O)N1CCCc2ccccc21 | 4 | -0.4% | 4.3 | -1.0% | . | -11 | 3%
Cc1sc2nc(C(C)C)nc(SCC(=O)N3CCN(C(=O)c4ccco4)CC3)c2c1C | 1 | -4.1% | -0.5 | 14%[38.3 µM] | 3.4 | -17 | -2%
O=C(COc1ccccc1Br)N1CCN(c2ccccc2)CC1 | -1 | -2.8% | -0.3 | -5.9%[38.3 µM] | 0.1 | 8 | 12%
N#C/C(=C(/O)CN1CCN(c2ccccc2F)CC1)c1nc(-c2ccc(Cl)cc2)cs1 | -6 | -0.8% | -0.4 | . | 0.5 | . | -1%
COc1ccccc1Nc1nc2ccccc2n2cnnc12 | . | -30% | . | 0.0% | 6.2 | -8 | -4%
CCN(Cc1ccccc1)Cc1c(O)ccc2c(=O)c(-c3ccccc3OC)c(C(F)(F)F)oc12 | 12 | -10% | 0.0 | 5.4% | . | . | .
Cc1ccc(-n2c(=O)[nH]c3c(C(N)=O)nc(C(C)C)nc32)cc1 | 11 | . | 2.5 | 0.0% | 4.8 | -2 | -2%
O=C(OCC(O)COc1ccccc1)c1ccc([N+](=O)[O-])cc1 (stereo not drawn) | -6 | 2.6% | 1.8 | 3.5% | 0.9 | 8 | 12%
CCOC(=O)c1ccc(N2Cc3ccccc3C2=NC(=O)c2ccncc2)cc1 | 5 | -7.5% | -0.1 | 2.0% | 0.5 | -14 | 6%
Cc1cccc(NS(=O)(=O)c2ccc3c(c2)CC(C)N3C(=O)C2CCC2)c1C (stereo not drawn) | 2 | 1.8% | 0.9 | 1.5% | . | . | .
O=C(c1ccc(F)cc1)c1ccc(-c2ccc(F)cc2)nc1 | . | 0.7% | . | 7.0% | -1.7 | -17 | 3%
Cc1cc(C[n+]2ccccc2)c2nsnc2c1 | 0 | ? | -0.1 | . | 5.3 | 6 | 21%
Cc1c(NS(=O)(=O)c2ccc(NCC3CCCO3)c([N+](=O)[O-])c2)c(=O)n(-c2ccccc2)n1C (stereo not drawn) | -6 | 1.4% | 0.3 | 0.0% | 2.1 | 8 | 12%
Cc1cccc(S(=O)(=O)NC(=O)C2(C)CCN2C(=O)c2ccccc2)c1 (stereo not drawn) | . | 0.0% | -0.1 | 1.1% | . | . | .
Cc1ccc(-c2nc(CN3CCCCC3c3cccc(F)c3)c(C)o2)o1 (stereo not drawn) | 21 | . | 0.2 | 5.8% | 8.7 | -16 | 4%
CCOCCOC(=O)COC(=O)c1ccccc1NC(=O)c1ccccc1 | 11 | -2.1% | 1.3 | 0.6% | 14 | 16 | -15%
CCN(CCCNC(=O)CNC(=O)c1nn(-c2ccc(OC)cc2)c(=O)c2ccccc12)c1cccc(C)c1 | 9 | . | -0.4 | 1.7% | 1.4 | 14 | 13%
CC(C)N1CC(O)=C(c2nc3ccccc3[nH]2)C1=N | -8 | -0.2% | 2.8 | -0.6%[38.3 µM] | 6.2 | 1 | -16%
CCOC(=O)Cn1c2ccc(F)cc2c2nc(C)sc21 | 16 | -1.9% | 0.6 | 0.8% | 0.4 | 2 | -12%
Cc1ccccc1S(=O)(=O)N(C)C[C@H]1OCc2cn(nn2)CCCC(=O)N([C@@H](C)CO)C[C@@H]1C | 13 | -2.2% | 1.1 | 1.5% | . | . | .
CC(C)=Cc1oc2ccc([N+](=O)[O-])cc2c1N1CCOCC1 | 6 | -0.9% | -0.5 | 1.3% | -1.2 | -4 | -7%
C[C@H]1CCC2[C@](C)(CO)[C@@H](O)CC[C@]2(C)[C@@]12CCC(CO)(CCO)O2 (stereo partly drawn) | 6 | . | 1.0 | 1.6% | -2.9 | -12 | 15%
CC(C)c1ccc(Nc2cc(C(=O)NCc3cccs3)c3ccccc3n2)cc1 | -12 | 4.3% | 0.8 | 0.8% | . | . | .
Cc1sc[n+](CC(=O)c2ccc(Br)cc2)c1C | -7 | -1.0% | -0.3 | -0.9% | 0.3 | 13 | 3%
C/C(=N\NS(=O)(=O)c1ccc(Cl)c([N+](=O)[O-])c1)c1cc2ccccc2o1 | -16 | 0.2% | -0.5 | 0.1% | -2.1 | 2 | -2%
COc1cc(NC(=O)Cn2c(=O)n(CC3CCCO3)c(=O)c3ccccc32)cc(OC)c1 (stereo not drawn) | 7&29 | -6.2%&-1.7% | 0.9&-0.6 | 1.3%&-0.2% | -4.1 | -22 | 10%
CN(C)S(=O)(=O)c1ccc(-n2cccc2)cc1 | -8 | . | -1.0 | 1.1% | -2.8 | 9 | 6%
COc1cc2c(NC3CCN(C)CC3)nc(N3CCCN(C)CC3)nc2cc1OCCCCCN | . | 3.9% | -0.1 | -0.4% | . | . | .
CC(=O)/C(=N/Nc1ccccc1)Sc1nnc(C(O)c2ccccc2)n1-c1ccccc1 (stereo not drawn) | -1 | -0.1% | -0.1 | 1.1% | 0.4 | 15 | -11%
COc1ccc(-c2coc3c(C(=O)Nc4cccnc4)cccc23)c(C)c1 | . | -5.5% | -0.6 | 0.9% | . | . | .
CCc1nn2c(N3CCOCC3)cc(C)nc2c1-c1ccccc1 | 7 | 0.3% | -0.7 | 0.3% | 0.5 | 29 | 8%
CC1CC(C)CN(C(=O)CCc2ccccc2)C1 (stereo not drawn) | -5 | . | -0.7 | -0.1% | -2.8 | -19 | 17%
O=C(NC1CCCC1)C(c1ccsc1)N(C(=O)Cc1cccs1)c1cccc(F)c1 (stereo not drawn) | -2 | 1.1% | 3.9 | 16%[38.3 µM] | 7.3 | 18 | 22%
Fc1ccc(-c2csc3ncnc(Nc4ccc(N5CCOCC5)cc4)c23)cc1 | 43 | -4.1% | 1.6 | ? | 3.2 | 4 | 0%
COc1ccc(OC)c(NC(=O)/C=C/c2ccc(S(=O)(=O)N3CCOCC3)cc2)c1 | -10 | 0.0% | 4.5 | 1.9% | . | 22 | .
Cc1nnsc1-c1nnc(SCC(=O)c2ccccc2)n1C1CC1 | 16 | -15% | 3.4 | 1.0% | 1.8 | -2 | ?
Cc1cccc(-n2nc([N+](=O)[O-])c(N3CCN(C(=O)c4ccco4)CC3)[n+]2[O-])c1 | -3 | . | -0.9 | 1.8% | -0.8 | -2 | 22%
CC(=O)Oc1ccc(C2OC(=O)c3ccccc3N2C(C)=O)cc1 (stereo not drawn) | -8 | 25µM* | -0.6 | 6.8%[38.3 µM] | -1.6 | 8 | 24%
COc1ccc(CNc2ncncc2-c2ccccc2OC)c(OC)c1 | . | . | . | 1.6% | -0.3 | . | -6%
CCCCn1c(SCC(=O)NCc2ccco2)nc2c(sc3ccccc32)c1=O | 21 | -20% | -0.3 | ? | 9.1 | 30 | ?
CC(=O)Nc1ccc(S(=O)(=O)N(C)CC(=O)Nc2nc3ccccc3[nH]2)cc1 | -7 | . | -0.4 | 5.4% | . | -10 | .
COc1cc(SC)ccc1C(=O)Nc1ncc(Cl)cc1Cl | -5 | . | 1.3 | 2.0% | -4.0 | 3 | 10%
COc1cccc(OC)c1OCC(C)CNCC1CCCO1 (stereo not drawn) | 5 | 0.6% | 0.7 | -2.3%[38.3 µM] | 2.1 | -3 | -19%
CCOC(=O)c1[nH]c2ccc(C)cc2c1NC(=O)CN1CCCCC1 | 2 | 32µM* | 0.4 | 0.8% | -0.2 | 5 | 15%
c1ccc(CSc2ccc(-c3cccs3)nn2)cc1 | -1 | -8.0% | 2.7 | 6.1% | 7.0 | -3 | -1%
COCCNc1nc(NCc2cccc(OC)c2)c2sccc2n1 | . | -22% | -1.0 | 1.7% | . | . | .
CC1CCN(C(=O)c2cc(-c3ccccc3O)on2)CC1 | -7 | -4.9% | 1.3 | 10.0% | 2.8 | . | 6%
CCC(C)NC(=O)c1c(-c2ccccc2)c(-c2ccccc2)nn(C)c1=O (stereo not drawn) | -1 | -1.1% | 1.3 | -1.1% | . | . | .
O=C(NCCc1ccc(Cl)cc1)c1cc2ccccn2n1 | 2 | . | 0.3 | 0.1% | 0.2 | -29 | -10%
Cc1ccc(Sc2ccc(/C=C3/C(=O)NN(c4ccccc4)C3=O)o2)cc1 | 2 | -0.9% | -0.7 | -1.1% | 18 | 4 | -5%
Cc1cc(=O)n2c3ccccc3n(CC(O)CN3CCCCC3)c2c1C#N (stereo not drawn) | 4 | 28µM* | -0.7 | 1.5%[38.3 µM] | -1.8 | -5 | 9%
CCCCCc1cc(=O)oc2c(C(CCN(CC)CC)c3ccc(OC)cc3)c(OC)cc(OC)c12 (stereo not drawn) | 6 | 4.2% | -0.8 | -1.3% | 2.4 | 5 | 56µM*
C=CCNC(=S)NNC(=O)c1cc(C)nc2ccccc12 | -7 | 2.1% | 0.0 | -0.3% | -1.0 | 4 | 20%
COc1ccc(CNC(=O)CSc2nnc3c(n2)[nH]c2ccc(C)cc23)cc1 | -2 | . | 0.1 | 0.0% | 3.5 | ? | -25%
Cc1cc(=O)oc2cc(OCC(=O)OCC(=O)NCCc3ccccc3)ccc12 | 27 | . | -0.9 | 0.0% | -1.9 | -12 | 12%

Assay outcomes from PubChem.
